High-throughput results (PubChem BioAssay)
Mtb betalactam: beta-lactam sensitization of Mtb H37Rv; M. tuberculosis H37Rv growth with meropenem, percent inhibition; hits of this screen are not shown here; inhibition, % at 25 µM; 330,000 compounds, 0.27% hits;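 active = about 74% or more and at least 40 points above the plate without the antibiotic, then above 30% in a dose series; inconclusive = first-round hits that could not be retested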;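 also: growth measured after seven days incubation then overnight dye step; 0% = bacteria only wells and 100% = bacteria with antibiotic; twin plates without the antibiotic show which effects depend on it; some results filed as inactive read as strong as hits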
RecA splice inh: blocks M. tuberculosis RecA intein splicing; cell-free RecA intein splicing, fluorescence; P9WHJ3; inhibition, %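 (about 9 µM by stock and volumes)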; AID 2221; 290,000 compounds, 0.75% hits; in the data active = inhibition above about 30%; inconclusive = no clear call, values can overlap the other calls;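 also: 0% = vehicle wells and 100% = reference inhibitor control wells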
Target sequence (P9WHJ3 whole entry, looked up, canonical isoform): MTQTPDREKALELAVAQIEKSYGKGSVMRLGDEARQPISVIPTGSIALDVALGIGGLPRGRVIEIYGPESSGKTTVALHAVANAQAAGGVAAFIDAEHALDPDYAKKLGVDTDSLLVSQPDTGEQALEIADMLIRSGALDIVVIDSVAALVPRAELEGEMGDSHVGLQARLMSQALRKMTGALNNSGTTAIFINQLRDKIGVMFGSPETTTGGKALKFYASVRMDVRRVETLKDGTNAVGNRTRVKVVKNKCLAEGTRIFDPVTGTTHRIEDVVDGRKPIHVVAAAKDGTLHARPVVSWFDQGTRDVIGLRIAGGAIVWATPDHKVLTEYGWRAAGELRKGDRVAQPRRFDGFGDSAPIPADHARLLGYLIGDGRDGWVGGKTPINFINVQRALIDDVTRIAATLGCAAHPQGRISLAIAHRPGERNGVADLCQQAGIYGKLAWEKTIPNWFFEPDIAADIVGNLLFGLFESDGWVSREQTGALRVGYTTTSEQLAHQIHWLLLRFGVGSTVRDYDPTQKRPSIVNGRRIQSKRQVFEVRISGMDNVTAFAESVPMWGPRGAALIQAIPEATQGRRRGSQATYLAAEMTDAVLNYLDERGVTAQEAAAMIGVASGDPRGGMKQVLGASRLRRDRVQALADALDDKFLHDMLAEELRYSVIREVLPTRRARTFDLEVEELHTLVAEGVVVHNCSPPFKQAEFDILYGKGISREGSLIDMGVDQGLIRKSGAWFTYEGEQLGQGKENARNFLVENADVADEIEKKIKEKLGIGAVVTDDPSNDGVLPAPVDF
Mtb growth: M. tuberculosis H37Rv growth inhibitors, H37Rv strain (AID 1626). M. tuberculosis H37Rv growth inhibition; higher % means a stronger effect. inhibition, % at 10 µM, or IC50 in µM where a hit was titrated. 220,000 compounds, 0.95% hits;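 active = confirmed in a dose series; inconclusive = inhibition above 80% but not taken into the dose series; inactive = below 80% or under 30% at every dose of the series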;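 also: bacteria incubated seven days before Alamar blue readout; 0% = bacteria only wells and 100% = bacteria with antibiotic wells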
Arbovirus anti: arbovirus infection inhibition. inhibition, % at 10 µM. 200,000 compounds, 0.37% hits. AID 1251. arbovirus infection cell-based antiviral screen;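 active = inhibition from about 30%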;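 also: bluetongue infection of BSR cells; cell survival read as ATP light after 72 h; 0% = infected wells without compound and 100% = uninfected wells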
YopH inh: YopH (Yersinia) phosphatase inhibition | fluorescence Ex485/Em525 | inhibition, %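 (about 10 µM by stock and volumes)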 | 140,000 compounds, 0.16% hits | AID 898;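 active = inhibition of 50% or more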;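 also: controls were vehicle for no effect and minimum signal wells for full effect; inactives centre near -20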
Arbovirus anti repeat: second read-out of Arbovirus anti, no call of its own (marks repeat the call); inhibition, %; measured here: 10K subset replicate screen; many hits read low in the repeat;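 first of two repeat runs on a subset; 0% = infected and 100% = uninfected wells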
* hit, by the source's call. Not all compounds are listed (hit frequency here may not be typical).

COc1cc(OC)cc(C(=O)O/N=C(\N)c2cccc(C)c2)c1 was read as Mtb betalactam 14 and RecA splice inh 3.5.
COc1ccc(-n2nnc3c(=O)n(CC(=O)Nc4cc(C)on4)cnc32)cc1OC was read as Mtb betalactam 4, RecA splice inh -62, Mtb growth -1% and Arbovirus anti 8.
Screening Cc1ccc(NC(=O)C2CCN(S(=O)(=O)c3cnc[nH]3)CC2)nc1 returned Mtb betalactam -2, RecA splice inh 0.8, Mtb growth 6%, Arbovirus anti 0 and YopH inh -21.
For CCC(Cc1ccccc1)NCc1c(C(=O)O)c(C)n(Cc2ccccc2)c1C (stereo not drawn) the results were Mtb betalactam -5, RecA splice inh -1.3, Mtb growth -4% and Arbovirus anti 0.
For O=S(=O)(c1ccc2c(c1)OCCO2)N(Cc1ccc(F)cc1)Cc1nnc(-c2cccs2)o1 the results were Mtb betalactam -3, RecA splice inh 0.1, Mtb growth 3%, Arbovirus anti 0 and YopH inh 17.
Screening CN(CC(=O)Nc1ccc(Cl)c(C(F)(F)F)c1)C(=O)c1cccs1 returned Mtb betalactam -3 and RecA splice inh 2.5.
CN(C)c1ccc(/C=N/N(CCO)C2=NS(=O)(=O)c3ccccc32)cc1 was read as Mtb betalactam 0 and RecA splice inh -1.6.
CC(C)c1nc2ccccc2n1CCC(=O)O was read as Mtb betalactam 5, RecA splice inh 2.2, Mtb growth -1%, Arbovirus anti 4 and YopH inh -22.
Screening Cc1ccc(NS(=O)(=O)c2ccc(NC(=O)C(C)Sc3ccc(Cl)cc3)cc2)c(C)c1 (stereo not drawn) returned Mtb betalactam 0, RecA splice inh 6.3, Mtb growth 12%, Arbovirus anti -11 and YopH inh -38.
O=C(c1ccc(Cl)cc1)C1CCCN(C(=O)/C=C/c2ccccn2)C1 (stereo not drawn) was read as Mtb betalactam -2, RecA splice inh 1.0, Mtb growth 1% and Arbovirus anti 4.
Screening Cc1ccc(C2=Nc3c(ccc4ccccc34)C(c3ccncc3)=NN2)cc1 returned RecA splice inh 7.6, Mtb growth 4% and Arbovirus anti -34.
`CSc1ccccc1OCc1cc(C(=O)N2C[C@H]3CC[C@H]2C3)no1` gave Mtb betalactam inconclusive and RecA splice inh 4.4.
For Cn1ncc(Br)c1NC(=O)c1ccco1 the results were Mtb betalactam 1 and RecA splice inh 0.1.
Screening Cc1nc(-c2cccc(S(=O)(=O)N3CCCCCC3)c2)cs1 returned Mtb betalactam 3, RecA splice inh 7.2, Mtb growth 1%, Arbovirus anti 6 and YopH inh 8.
`CCOCCn1c(C(C)O)nc2ccccc21` (stereo not drawn) gave Mtb betalactam -4, RecA splice inh -0.2, Mtb growth -4%, Arbovirus anti 4 and YopH inh -19.
`CCCOc1ccc(Cc2c(Cl)nc(SC)nc2NC)cc1` gave Mtb betalactam 8, RecA splice inh 0.6, Mtb growth 5%, Arbovirus anti -12 and YopH inh -23.
For Cc1ccc(C(C(=O)NCC2CCCO2)N(C(=O)c2snc(C(N)=O)c2N)c2ccc(C(C)C)cc2)o1 (stereo not drawn) the results were Mtb betalactam 7 and RecA splice inh 0.5.
Screening Cc1cc(C)n(C(=O)CCC2COc3ccccc3O2)n1 (stereo not drawn) returned Mtb betalactam -8, RecA splice inh 6.5, Mtb growth -5%, Arbovirus anti -1 and YopH inh -27.
For O=C(N/N=C/c1cccc(Oc2ccccc2)c1)c1ccc(O)cc1O the results were Mtb betalactam 10 and RecA splice inh 1.3.
For CC(=O)c1ccc(OC(C)c2nc3ccccc3s2)cc1 (stereo not drawn) the results were Mtb betalactam 8 and RecA splice inh 8.0.
Screening c1ccc(Nc2ccc3c4c(cccc24)CC3)cc1 returned Mtb betalactam -3, RecA splice inh -1.2, Mtb growth -5%, Arbovirus anti -14 and YopH inh -9.
For CC1CCC/C(=C\c2ccc(O)cc2)C1=O (stereo not drawn) the results were Mtb betalactam 3 and RecA splice inh 2.3.
Screening Cc1cc(Cc2cc(C)c(N)cc2C)c(C)cc1N returned Mtb betalactam -7, RecA splice inh 0.2, Mtb growth -1% and Arbovirus anti -16.
`CC(=O)OCC1OC(n2ccc3ccccc32)C(OC(C)=O)C(OC(C)=O)C1OC(C)=O` (stereo not drawn) gave Mtb betalactam -1, RecA splice inh -2.5, Mtb growth -4%, Arbovirus anti 10 and YopH inh -8.
O=c1cc(N2CCc3ccccc3C2)[nH]c(=O)n1C1CCCCC1 was read as Mtb betalactam -6, RecA splice inh -0.2, Mtb growth -5%, Arbovirus anti -3 and YopH inh -47.
For O=C(NC1CCCCC1)C1CCN(S(=O)(=O)N2CCCCCC2)CC1 the results were Mtb betalactam -14, RecA splice inh -5.7, Mtb growth -1%, Arbovirus anti 10 and YopH inh -53.
Screening CCC(=O)NC(Nc1nc2ccc(C)cc2s1)(C(=O)OC)C(F)(F)F (stereo not drawn) returned Mtb betalactam 1, RecA splice inh -0.4, Arbovirus anti 1 and YopH inh 3.
NNC(=S)Nc1ccc(C(F)(F)F)cc1Cl was read as Mtb betalactam 83, RecA splice inh -1.3 and Mtb growth -4%.
`CCC(=O)NC(=S)Nc1ccc(-c2nc3ccc(C)cc3s2)cc1` gave Mtb betalactam 17, RecA splice inh -1.2, Mtb growth 3%, Arbovirus anti -5 and YopH inh -22.
`CCCCN(C)CCCNC(=O)CN1N=C(c2ccc(Cl)cc2)CCC1=O` gave Mtb betalactam -7 and RecA splice inh 10.
Screening Cc1ccc2ccc3cccnc3c2n1 returned Mtb betalactam 99 and RecA splice inh -1.1.
Brc1ccc(-c2noc(-c3ccccn3)n2)o1 was read as Mtb betalactam -4 and RecA splice inh 2.4.
`Cc1ccc(C)c(NC2=NCCCS2)c1` gave Mtb betalactam -9, RecA splice inh -0.1, Mtb growth 3%, Arbovirus anti 0 and YopH inh -17.
Screening C[C@H](NC(=O)[C@@H]1Cc2ccccc2CN1C(=O)OC(C)(C)C)C(=O)NC1CCCCC1 returned Mtb betalactam 0 and RecA splice inh 0.5.
CCOC(=O)N1CCN(C(=O)c2ccc3c(SCC(=O)O)c4c(nc3c2)CCC4)CC1 was read as Mtb betalactam 0, RecA splice inh 16, Mtb growth 2%, Arbovirus anti 4, YopH inh -35 and Arbovirus anti repeat 3.
`CCN(CC)C(=O)c1sc(NC(=O)c2ccncc2)c(C(=O)OC)c1C` gave Mtb betalactam 1, RecA splice inh -1.7, Mtb growth 9%, Arbovirus anti 9 and YopH inh 6.
For Cc1ccc(S(=O)(=O)N2CCCC2C(=O)Nc2nc3ccccc3s2)cc1 (stereo not drawn) the results were Mtb betalactam 0, RecA splice inh 5.5, Mtb growth 4%, Arbovirus anti 9, YopH inh 11 and Arbovirus anti repeat 6.
Screening COC(=O)c1ccc(OCC(=O)c2ccc(O)cc2O)cc1 returned Mtb betalactam -1, RecA splice inh 0.2, Mtb growth -3%, Arbovirus anti -2 and YopH inh -30.
For O=C(CSc1ccc(-c2ccc(F)cc2)nn1)N1CCN(c2ccccc2)CC1 the results were Mtb betalactam -9, RecA splice inh 1.1, Mtb growth 1%, Arbovirus anti -4 and YopH inh -1.
Screening COc1cc(/C=N/NC(=O)C2COc3ccccc3O2)ccc1O (stereo not drawn) returned Mtb betalactam -6, RecA splice inh -2.5 and Mtb growth -1%.

Entries listed so far containing an aryl methoxy group (three):
COc1cc(OC)cc(C(=O)O/N=C(\N)c2cccc(C)c2)c1 was read as Mtb betalactam 14 and RecA splice inh 3.5.
COc1ccc(-n2nnc3c(=O)n(CC(=O)Nc4cc(C)on4)cnc32)cc1OC was read as Mtb betalactam 4, RecA splice inh -62, Mtb growth -1% and Arbovirus anti 8.
Screening COc1cc(/C=N/NC(=O)C2COc3ccccc3O2)ccc1O (stereo not drawn) returned Mtb betalactam -6, RecA splice inh -2.5 and Mtb growth -1%.

Quoted at random: three records from the list
`CC(=O)OCC1OC(n2ccc3ccccc32)C(OC(C)=O)C(OC(C)=O)C1OC(C)=O` (stereo not drawn) gave Mtb betalactam -1, RecA splice inh -2.5, Mtb growth -4%, Arbovirus anti 10 and YopH inh -8.
O=c1cc(N2CCc3ccccc3C2)[nH]c(=O)n1C1CCCCC1 was read as Mtb betalactam -6, RecA splice inh -0.2, Mtb growth -5%, Arbovirus anti -3 and YopH inh -47.
Screening COc1cc(/C=N/NC(=O)C2COc3ccccc3O2)ccc1O (stereo not drawn) returned Mtb betalactam -6, RecA splice inh -2.5 and Mtb growth -1%.

Other records.
CC(=O)N[C@@H](Cc1c[nH]c2ccccc12)C(=O)OCC(=O)Nc1ccc(S(=O)(=O)N(C)C)cc1 was read as Mtb betalactam -3, RecA splice inh 3.2, Mtb growth 3% and Arbovirus anti 3.
For O=C(CC1S/C(=N/N=C/c2cccnc2)NC1=O)Nc1ccccc1 (stereo not drawn) the results were Mtb betalactam 2, RecA splice inh 3.1, Mtb growth 0% and Arbovirus anti -1.
Screening CCOc1cc(N2CCOCC2)c(OCC)cc1NC(=O)c1ccc(OC)cc1 returned Mtb betalactam 14, RecA splice inh 8.9, Mtb growth -3% and Arbovirus anti -3.
Screening Cc1cc(C(=O)Nc2cnn(Cc3ccc(Cl)cc3Cl)c2)no1 returned Mtb betalactam -3, RecA splice inh -0.5, Mtb growth -3%, Arbovirus anti 1 and YopH inh 3.
`COc1ccc(C2CC(c3ccccc3)=NN2C(=O)COC(=O)c2cccc(S(=O)(=O)N(C)C)c2)cc1` (stereo not drawn) gave Mtb betalactam -6, RecA splice inh 3.6, Mtb growth 6%, Arbovirus anti -10 and YopH inh -18.
`COc1cccc(NC(=O)CCP(C)(=O)O)c1` gave Mtb betalactam 0, RecA splice inh -1.2, Mtb growth 5%, Arbovirus anti 2 and YopH inh -10.
Screening O=S(=O)(c1ccccc1)n1ccc(-c2cnc(-c3ccccc3)s2)n1 returned Mtb betalactam -5, RecA splice inh 1.3, Mtb growth -2%, Arbovirus anti -1 and YopH inh -54.
Screening O=C1C2CC=CCC2C(=O)N1c1n[nH]c(CCc2ccccc2)n1 (stereo not drawn) returned Mtb betalactam -5, RecA splice inh -0.6, Mtb growth -7%, Arbovirus anti 5 and YopH inh 4.
`CC(=O)NCCc1nc2ccccc2n1CCOc1cccc(C)c1` gave Mtb betalactam -5, RecA splice inh 1.5 and Mtb growth 3%.
Screening CCN(CC)CCCNC(=O)c1cn(CC)c2ccc(S(=O)(=O)N(C)C3CCCCC3)cc2c1=O returned Mtb betalactam 4 and RecA splice inh 0.1.
`CC(C)C(NC(=O)c1ccccc1NC(=O)c1ccco1)C(=O)O` (stereo not drawn) gave Mtb betalactam -8, RecA splice inh 2.3, Mtb growth -8%, Arbovirus anti -4 and YopH inh 3.
COc1c2ccccc2nc2ccccc12 was read as Mtb betalactam 4 and RecA splice inh -185.
CCS(=O)(=O)c1nc(S(=O)(=O)c2ccc(C)cc2)c(N2CC(C)OC(C)C2)s1 (stereo not drawn) was read as Mtb betalactam 2 and RecA splice inh 1.0.
`O=C(NC1CCCCC1)C(=O)c1c(-c2ccccc2)[nH]c2ccccc12` gave Mtb betalactam -4, RecA splice inh -3.1, Mtb growth 10%, Arbovirus anti -1 and YopH inh -32.
Cc1cc(NC(=O)CSc2nc(C(C)C)nc3sc4c(c23)CCCC4)no1 was read as Mtb betalactam 92, RecA splice inh -1.4, Mtb growth 11µM*, Arbovirus anti -15 and YopH inh 8.
O=C(CSCc1ccc(F)cc1)N1CCN(c2ccc(F)cc2)CC1 was read as Mtb betalactam 56, RecA splice inh 2.4, Mtb growth 7%, Arbovirus anti 11 and YopH inh -48.
`O=C(/C=C/c1ccco1)OCc1nnc(-c2ccc(Cl)cc2)o1` gave Mtb betalactam 6, RecA splice inh 2.4, Mtb growth 2% and Arbovirus anti -5.
Cc1ccc(CNC(=O)c2ccc(Cl)c(S(N)(=O)=O)c2)n1C was read as Mtb betalactam -2 and RecA splice inh 4.4.
For CCOC(=O)NC(=O)CSc1ccccn1 the results were Mtb betalactam 1, RecA splice inh 0.4, Mtb growth -5%, Arbovirus anti 4 and YopH inh -9.
`CCCCN(C(=O)c1ccc(S(=O)(=O)N(C)C)cc1)c1nc2ccccc2s1` gave Mtb betalactam inconclusive, RecA splice inh -3.1, Mtb growth 2%, Arbovirus anti 15 and YopH inh -19.
O=C(NNc1ccccc1[N+](=O)[O-])Nc1ccccc1 was read as Mtb betalactam -10, RecA splice inh -0.4, Mtb growth 2%, Arbovirus anti -4 and YopH inh -25.
